STK33 kinase inh: human STK33 kinase inhibition; Q9BYT3; purified STK33, MBP phosphorylation, ADP-Glo luminescence; inhibition, % at 10 µM; 0.073% of 320,000 active; AID 2661;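 active = inhibition at or above 25%, using the most active replicate where run in duplicate; inactive = inhibition below 25%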
Target sequence (Q9BYT3 whole entry, looked up): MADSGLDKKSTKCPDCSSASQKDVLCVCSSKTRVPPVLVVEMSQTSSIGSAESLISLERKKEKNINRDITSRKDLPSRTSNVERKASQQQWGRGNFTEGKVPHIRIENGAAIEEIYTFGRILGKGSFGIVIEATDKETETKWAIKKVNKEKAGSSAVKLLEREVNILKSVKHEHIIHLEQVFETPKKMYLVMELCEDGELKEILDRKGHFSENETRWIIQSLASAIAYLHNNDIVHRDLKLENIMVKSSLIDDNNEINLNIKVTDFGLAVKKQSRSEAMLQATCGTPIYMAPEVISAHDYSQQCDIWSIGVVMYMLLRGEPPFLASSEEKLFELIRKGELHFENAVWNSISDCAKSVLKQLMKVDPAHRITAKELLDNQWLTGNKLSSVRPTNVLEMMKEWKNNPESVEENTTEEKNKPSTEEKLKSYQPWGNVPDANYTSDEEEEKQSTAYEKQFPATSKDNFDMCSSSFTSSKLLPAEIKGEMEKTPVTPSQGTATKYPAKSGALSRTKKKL
Numbers without * were called inactive.

mol	STK33 kinase inh
O=C(NCc1ccccc1)/C(=C/c1cccc([N+](=O)[O-])c1)NC(=O)c1ccco1	-0.7
COc1cc(/C=C/c2cc(C(=O)O)c3ccccc3n2)ccc1OC(F)F	-1.6
CC1CCCCC1N(C)C1CCN(C(=O)CNC(=O)/C=C/c2cccc(Cl)c2)CC1 (configuration not stated)	0.1
COc1ccc(NC(=O)/C(C#N)=C\c2ccc(OCc3ccc(C(=O)O)cc3)c(OC)c2)cc1	-1.2
CC1(C)Cc2c(sc(NC(=O)c3ccco3)c2C#N)C(C)(C)N1	-1.7
COCCCNC(=O)CCc1ccc(S(=O)(=O)Nc2ccc(C)cc2)cc1	-0.9
CCOC(=O)C1=C(N2CCCCC2)c2cc3c(n2C1=O)CCCC3	2.0
Cc1ccccc1Cn1ccc(-c2ccc(Cl)cc2)c(C#N)c1=O	0.5
CCCCCCSc1ccc([C@H]2N[C@@](CC(C)C)(C(=O)OC)[C@H]3C(=O)N(C)C(=O)[C@@H]23)cc1	-1.1
COC(=O)c1nnn(-c2nonc2N)c1COc1ccc(C=O)cc1OC	-0.4
CN1C(=O)/C(=C/c2ccccc2OCc2ccccc2F)NC1=S	-0.1
COc1cccc(NC(=O)c2cc(-c3ccco3)nc3ccccc23)c1	-0.8
O=S(=O)(Nc1ncnc2sc3c(c12)CCC3)c1cc(F)ccc1F	-4.2
CC1CCN(S(=O)(=O)c2ccc3c(c2)CCN3C(=O)CCC(=O)O)CC1	-0.6
COc1ccc(OC)c(S(=O)(=O)Nc2cccc(C(C)=O)c2)c1	-2.6
Cc1ccc(S(=O)(=O)CCC(=O)Nc2ccccc2C)cc1	-1.0
CS(=O)(=O)N1CCN(C(=O)c2csc3ccccc23)CC1	-1.7
CCN(CC)CCNC(=O)c1cccc(NC(=O)C(=O)c2cc(Br)ccc2NC(C)=O)c1	-2.2
O=C1CC(c2ccccc2)CC(=O)C1Sc1ccc(Cl)cc1 (configuration not stated)	-2.0
O=C(NCc1ccccc1)C1CCN(C(=O)NCc2ccccc2)CC1	0.8
CCc1ccc(C(=O)/C=C2\Sc3ccccc3NC2=O)cc1	-0.4
CCN(CC)S(=O)(=O)c1cccc(S(=O)(=O)c2cccc(S(=O)(=O)N(CC)CC)c2)c1	-0.1
CCN(CC)S(=O)(=O)c1ccc2c(c1)oc(=O)n2CC(=O)NC1CCCCC1	-1.8
CCc1cccc(CC)c1NC(=O)COC(=O)c1ccccc1-c1nc2ccccc2s1	0.1
Cc1cccnc1NC1OC(=O)c2ccccc21 (configuration not stated)	-0.9
O=C(O)C1C2C=CC(C2)C1C(=O)NCc1cccnc1 (configuration not stated)	-1.7
Cc1ccc2[nH]c(=O)c(CN(CC3CCCO3)C(=S)NCc3ccco3)cc2c1 (configuration not stated)	0.8
Cc1ccc(-c2c[n+](CC(=O)Nc3nc(-c4ccc(F)cc4)cs3)c3n2CCC3)cc1	0.1
Cc1nc(CSc2ccccc2)cc(=O)[nH]1	-2.4
CCOC(=O)NC(NCc1cccc(C(F)(F)F)c1)(C(F)(F)F)C(F)(F)F	-0.5
Cn1c(N)c(C(=O)NCc2ccccc2)sc1=S	1.5
O=C(NCc1ccccc1)c1cccc(S(=O)(=O)N2CCCCC2)c1	0.4
Cc1c(-c2ccc(Br)cc2)[n+](=O)c2c(n1[O-])CCCCC2	0.0
Cc1cccc(N2C(=O)N3[C@H](c4ccc(Cl)cc4)[C@@H]4C(=O)N(C5CCCCC5)C(=O)[C@@H]4[C@]3(Cc3ccc(Cl)cc3)C2=O)c1	-1.6
CN(C)c1ccc(-c2nnn(CC(=O)Nc3ccccc3N3CCOCC3)n2)cc1	-0.3
Cc1cccc2sc(NC(=O)[C@@H]3CCCN3C(=O)c3cccs3)nc12	-2.1
COc1cc(C(=S)N2CCOCC2)ccc1OC(=O)c1ccccc1	0.3
Cc1cccc2c1NC(C)CC2C (configuration not stated)	-1.4
CCn1ncc(C(=O)Nc2ccc(F)cc2)c1C	-0.7
COC(=O)c1ccccc1NC(=O)Cn1cnc2c(cnn2-c2ccccc2)c1=O	-0.1

Among those listed so far, these contain fluorine:
mol	STK33 kinase inh
COc1cc(/C=C/c2cc(C(=O)O)c3ccccc3n2)ccc1OC(F)F	-1.6
CN1C(=O)/C(=C/c2ccccc2OCc2ccccc2F)NC1=S	-0.1
O=S(=O)(Nc1ncnc2sc3c(c12)CCC3)c1cc(F)ccc1F	-4.2
Cc1ccc(-c2c[n+](CC(=O)Nc3nc(-c4ccc(F)cc4)cs3)c3n2CCC3)cc1	0.1
CCOC(=O)NC(NCc1cccc(C(F)(F)F)c1)(C(F)(F)F)C(F)(F)F	-0.5
CCn1ncc(C(=O)Nc2ccc(F)cc2)c1C	-0.7

Going on with the list.
mol	STK33 kinase inh
N#CC(C#N)=C/C=C(\Nc1ccc(Cl)cc1)c1ccc(Cl)cc1	0.4
CN1CCN(c2ccc([N+](=O)[O-])c(Sc3nc4ccccc4[nH]3)c2)CC1	-1.3
CCOc1cc(C(c2c(C)[nH][nH]c2=O)c2c(C)[nH][nH]c2=O)cc(Cl)c1O	1.3
COc1cccc(OC)c1C(=O)N1CCN(S(=O)(=O)c2ccc(C)cc2)CC1	-1.2
Cc1ccsc1C(=O)NNC(=S)NC1CCCCC1	-1.3
FC(F)(F)c1cccc(NC(=S)NCC2COc3ccccc3O2)c1 (configuration not stated)	-1.3
COc1ccc(-c2noc(CCC(=O)NC3CCCCC3)n2)cc1	1.2
CC(C)C(c1nnnn1Cc1ccco1)N1CCN(C2CCCC2)CC1 (configuration not stated)	-1.3
COc1cccc(-c2ccc(C#N)c(SCC(=O)NCCc3ccc(Cl)cc3)n2)c1	2.0
C=CCSc1nnc(NC(=O)C2CSC3(C)CCC(=O)N23)s1 (configuration not stated)	-0.2
CC(=O)c1cccc(NS(=O)(=O)N2CCCCC2)c1	1.1
C=CCn1cnc2scc(-c3ccc(CC)cc3)c2c1=O	1.5
CC(C)(C)c1ccc(C(=O)Nc2ccc(S(N)(=O)=O)cc2)cc1	-0.9
Cc1cccc2nc(COc3ccc(Cl)c4cccnc34)cn12	0.4
Nn1c(Nc2ccccc2)nc2ccccc21	-0.5
c1ccc2[nH]c(SCC3CCCCO3)nc2c1 (configuration not stated)	-1.2
O=C1c2ccccc2C(Nc2ccc(F)c(Cl)c2)N1c1ccccn1 (configuration not stated)	0.0
c1c2c(cc3sc(N4CCCCC4)nc13)OCO2	3.9
COc1ccc(CCNC(=O)c2cc3c(=O)n4ccccc4nc3n(C3CCCCC3)c2=N)cc1	0.0
COc1ccccc1NC(=O)COc1ccc(C(=O)OCC(=O)N2CCCC2=O)cc1OC	-0.9

(continued)
| Structure | STK33 kinase inh |
| --- | --- |
| COc1ccc(CN(C)C(=O)CCCNC(=O)c2ccc(Cl)cc2)cc1 | -3.1 |
| CCn1nc(C)c(CN2CCc3c([nH]c4ccccc34)C2c2ccc(F)c(OC)c2)c1C (configuration not stated) | -1.3 |
| COc1ccc(CNc2ccc3cn[nH]c3c2)c(OC)c1OC | 0.8 |
| CN(CCC#N)C(=O)COC(=O)c1ccc2c(c1)C(=O)N(C1CCCCC1)C2=O | 4.6 |
| CC(=O)Nc1ccc(C(=O)CSc2ncn(-c3ccccc3)n2)cc1 | -0.5 |
| Cc1ccc(S(=O)(=O)c2c(N)n(NC(=O)c3ccco3)c3nc4ccccc4nc23)cc1 | -1.4 |
| CCOC(=O)c1ccc2c(c1)C1C=CCC1C(C(=O)OCC)N2 (configuration not stated) | -1.5 |
| Cc1ccccc1C(=O)NC(=S)NCC(=O)c1ccccc1 | -0.6 |
| Cc1ccc(N(CC(=O)NCc2ccco2)C(=O)CCC(=O)Nc2ccccn2)c(C)c1 | -1.9 |
| COC(=O)CC1Nc2ccccc2SC1=O (configuration not stated) | -1.0 |
| CCNC(=O)CSc1nc(-c2ccc(F)cc2)cs1 | -1.3 |
| CNc1ccccc1C(=O)OC | -1.6 |
| CC(=O)c1ccc(OCc2cc(C(=O)N(C)CCOc3ccc(C)cc3)no2)cc1 | 0.7 |
| O=c1c2cc(N3CCOCC3)ccc2[nH]c(=S)n1Cc1ccccn1 | -0.5 |
| Cc1cc2oc(=O)cc(Cn3ccnc3)c2cc1O | -0.9 |
| COc1ccc(/C=N/n2c(C)nnc2C)c(OC)c1 | 2.7 |
| O=C(NCCC1=CCCCC1)C(=O)NCC1OCCCN1S(=O)(=O)c1cc(F)ccc1F (configuration not stated) | -0.7 |
| COC(=O)c1c(NC(=O)C(C)C)sc(C(=O)N2CCOCC2)c1C | -1.1 |
| COc1ccc(C2Nc3ccccc3C(=O)N2O)cc1OC (configuration not stated) | -1.2 |
| Cc1ccc(C(=O)OCC(=O)NC(=O)Cc2ccccc2)c(O)c1 | -1.8 |
| O=C1NC(c2ccccc2)Oc2ccccc21 (configuration not stated) | -1.9 |
| NC1=NC2(CCCC2)n2c(nc3ccccc32)N1 | -0.7 |
| Cc1ccccc1N1CC(c2nc3ccccc3[nH]2)CC1=O (configuration not stated) | -1.0 |
| CCOC(=O)c1ccc(NC(=O)CSc2nnc(CNc3ccc(OC)cc3)n2C)cc1 | -0.7 |
| CCNC(=O)C(=O)NCC(c1cccs1)S(=O)(=O)c1ccc(C)cc1 (configuration not stated) | -2.4 |
| Cc1onc(-c2c(Cl)cccc2Cl)c1C(=O)N1CCCc2ccccc21 | -1.1 |
| CCCCCCC(=O)Nc1c(O)c2ccccc2[nH]c1=O | -0.8 |
| OCCn1ccc(-c2ccccc2OCc2ccc(F)cc2)n1 | 3.0 |
| Cc1sc2ncnc(SCC(=O)c3ccc(Cl)s3)c2c1C | -0.6 |
| O=C(Cc1ccccc1)N1CCN(C(=O)c2ccco2)CC1 | -0.4 |
| CNS(=O)(=O)c1cc(NC(=O)c2cnc(SC)n2-c2ccccc2)ccc1C | -0.9 |
| CCCn1c(N)c(N(CCOC)C(=O)/C=C/c2cccc(Cl)c2)c(=O)[nH]c1=O | -1.8 |
| Cc1cc(OCC(=O)NCc2ccccn2)c2c(C)c(C)c(=O)oc2c1 | 1.2 |
| COCCNC(=O)C1CC(=O)N(C2CCCCC2)C1 (configuration not stated) | -7.2 |
| Cn1c(-c2ccc3c(c2)OCO3)cc(=O)c2ccccc21 | 0.7 |
| Cc1ccc(NC(=O)CCC(=O)N/N=C/c2coc3ccccc3c2=O)cc1 | 1.6 |
| CCOC(=O)C1CCCN(Cc2ccc(OC)c(OCc3ccccc3)c2)C1 (configuration not stated) | -2.1 |
| CC(C)CNC(=O)C(=O)NC1CCCC1 | -1.7 |
| O=C1CC(c2ccccc2)CC(O)=C1C=Nc1ccccc1Cl (configuration not stated) | -1.7 |
| COc1ccc(NC(=O)c2ccccn2)cc1OC | 1.1 |

Six entries already listed, arranged by their value in STK33 kinase inh, falling.
Molecule	STK33 kinase inh
CC(=O)c1ccc(OCc2cc(C(=O)N(C)CCOc3ccc(C)cc3)no2)cc1	0.7
O=C(NCc1ccccc1)c1cccc(S(=O)(=O)N2CCCCC2)c1	0.4
COc1cc(C(=S)N2CCOCC2)ccc1OC(=O)c1ccccc1	0.3
NC1=NC2(CCCC2)n2c(nc3ccccc32)N1	-0.7
COc1cccc(OC)c1C(=O)N1CCN(S(=O)(=O)c2ccc(C)cc2)CC1	-1.2
CS(=O)(=O)N1CCN(C(=O)c2csc3ccccc23)CC1	-1.7

More compounds.
| Structure | STK33 kinase inh |
| --- | --- |
| COCCn1nnnc1CN1CCC(Cc2ccccc2)CC1 | 3.9 |
| CCc1cccc(NC2c3ccccc3C(=O)N2c2cccnc2)c1 (configuration not stated) | -0.5 |
| CCCOc1ccccc1OCC(=O)Nc1ccc(S(=O)(=O)N2CCCCC2)cc1 | -1.0 |
| NC(=O)NC(c1ccccc1)c1ccccc1 | -0.9 |
| Cc1ccsc1C(=O)N1CCC(CO)(Cc2ccccc2)CC1 | -0.8 |
| Cc1cc(C)nc(N/N=C/C2=C(N3CCOCC3)C(=C/c3ccccc3)/CC2)n1 | -0.8 |
| CCC1(CC)C(=O)C2=C3C1[C@H](C(=O)OC)C=C(C(=O)OC)C[C@H]3[C@H]1C(=O)N(CC(=O)OC)C(=O)[C@H]1[C@H]2C (some centres not stated) | -1.0 |
| O=C(CCC1COc2ccccc2O1)NCC1COc2ccccc2O1 (configuration not stated) | -0.6 |
| C=CCOn1c(=O)c(-c2cc3ccccc3o2)[n+]([O-])c2ccccc21 | -1.0 |
| CN(C)/C(=N\S(=O)(=O)c1ccc(Cl)cc1)c1ccc(F)cc1 | -0.8 |
| COc1ccccc1OCC(=O)N1CCN(C(=O)c2ccco2)CC1 | -1.4 |
| CC1(C)CC(=O)C2=C(C1)Nc1ccccc1NC2c1ccccc1F (configuration not stated) | -1.1 |
| O=C(NC(=S)Nc1ccc2[nH]ncc2c1)c1ccccc1 | 14 |
| COc1ccccc1N1CCC(N2CCN(CC(C)(C)C)C(CCO)C2)CC1 (configuration not stated) | 0.2 |
| COc1ccc(-c2nnn(CC(=O)N(CC(=O)NCCC(C)C)Cc3cccs3)n2)cc1OC | -0.4 |
| COc1cc(C(=O)NCCC2=CCCCC2)ccc1OC1CCN(C(C)=O)CC1 | -0.3 |
| CCOC(=O)c1cc(S(=O)(=O)N2CC(C)CC(C)C2)cn1C (configuration not stated) | -0.4 |
| O=C(COc1ccc(/C=N/NC(=O)c2ccncc2)cc1)Nc1ccccc1 | -1.0 |
| O=C(O)c1ccc2c(c1)C(=O)N(c1ccc(OCc3ccccc3)cc1)C2=O | -1.3 |
| Cc1ccccc1NC(=O)c1[nH]cnc1C(=O)NN | -0.7 |
| COc1ccccc1-c1cc(C(=O)NN)[nH]n1 | 0.8 |
| CCN(C(=O)COC(=O)/C=C/c1cnc2ccccc2n1)C1CCS(=O)(=O)C1 (configuration not stated) | -0.8 |
| CCOC(=O)c1c(C)[nH]c(C)c1C(=O)CSc1nc2ccccc2c(=O)n1-c1ccccc1C | 0.0 |
| O=C(CCN1C(=O)C2CC=C(Cl)CC2C1=O)NCc1ccccc1 (configuration not stated) | -0.8 |
| Cc1cc(C)n(C(=O)CCNC(=O)c2ccccc2Cl)n1 | -0.9 |
| COc1ccc2nc(Cl)c(C#N)cc2c1 | -1.0 |
| NC(=O)c1cc2c3ccccc3ccn2c1-c1ccccc1 | -0.2 |
| NNC(=O)c1ccc(CSc2nc3ccccc3s2)cc1 | 0.4 |
| CN(C)S(=O)(=O)c1ccc(N2CCCC2)c(C(=O)OCC(=O)NC2(C#N)CCCCC2)c1 | -1.7 |

Compound activity deposited in PubChem BioAssay by Broad Institute.

These rows are one share of the data; most or all hits stand in other tables.
